High-throughput results from PubChem BioAssay.
GIV-Gai inh – blocks GIV peptide binding to rat Galpha-i3 | percent of control (FP), % (concentration not given with the values) | Galpha-i3/FITC-GIV peptide fluorescence polarization, 90 min; active compounds read low; scaled: aluminum fluoride 0%, vehicle 100% | actives 0.42% (n = 210,000) | P08753 | AID 1224905;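 active means replicate mean at 85% of control or lower, very high polarization wells dropped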;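 further: wells of about 15 µL received 100 nL stock; the first replicate is given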
Target sequence (P08753 whole entry, looked up): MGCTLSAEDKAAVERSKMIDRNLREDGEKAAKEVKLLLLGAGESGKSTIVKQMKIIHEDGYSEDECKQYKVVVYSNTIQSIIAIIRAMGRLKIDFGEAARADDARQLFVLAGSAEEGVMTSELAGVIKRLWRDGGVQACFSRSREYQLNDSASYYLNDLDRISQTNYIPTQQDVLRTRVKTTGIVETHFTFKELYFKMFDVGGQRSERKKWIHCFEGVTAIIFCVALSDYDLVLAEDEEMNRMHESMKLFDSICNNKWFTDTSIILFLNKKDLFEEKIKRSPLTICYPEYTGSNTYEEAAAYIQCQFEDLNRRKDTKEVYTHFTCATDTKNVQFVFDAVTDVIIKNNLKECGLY
Sa growth 42C – S. aureus growth inhibition | relative growth, % (test concentration not listed) | S. aureus RN4220 growth, OD600, 20 h, 42 °C; active compounds read low | actives 0.53% (n = 170,000);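 active means growth at 42 °C up to 50% and 20 or more points under that at 30 °C, or under 10% at both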;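 further: 300 nL library stock went into each well; scaled to the means of positive and negative controls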
HCMV UL50-53 inh – inhibitors of HCMV UL50-UL53 nuclear egress complex interaction; HTRF UL50-UL53 interaction, normalized percent inhibition; inhibition, % (no concentration beside the values); actives 0.15% (n = 190,000);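 active means both replicates at 50% or more, plus weaker picks with an unusually low signal ratio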;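 further: stock transfer was 100 nL into about 20 µL; 0% = negative control wells and 100% = wells with untagged competitor protein; inactives centre near -12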
Sa growth 42C second temp – second read-out of Sa growth 42C, no call of its own (marks repeat the call); relative growth, %; measured here: growth at 30 °C;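 optical density after 20 h as mean of two plates; 100% = untreated growth and lower means inhibition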
* = called active by the depositor; / = no result given; & = joins results of further samples.

SMILES	GIV-Gai inh	Sa growth 42C	Sa growth 42C second temp	HCMV UL50-53 inh
Cc1cccc(CSC2=NCCN2C(=O)C2CC2)c1	101	83	94	-29
C=CCNC(=O)CSc1nc(-c2ccco2)cc(C(F)(F)F)n1	100	70	88	-30
CC1CCC(NC(=O)C2CCN(c3nnc(-n4cccc4)s3)CC2)CC1 (configuration not stated)	108	92	87	/
CC(NCCC(=O)O)c1ccccc1 (configuration not stated)	107	117	80	-2
Cc1ccc(SCC(=O)Nc2cccnc2)cc1	/	94	83	4
O=C(NCCn1c(C(F)(F)F)nc2cccnc21)c1ccc(Br)cc1	106	/	/	-4
CCOc1cccc(N2C(=O)/C(=C\c3ccc(-c4cccc([N+](=O)[O-])c4)o3)C(=O)NC2=S)c1	101	/	/	-21
COC(=O)CCN1CCC(C(N)=O)CC1	/	86	88	-17
COc1ccc(-c2nn3c(N4CCCC4)cc(C)nc3c2C)cc1OC	107	/	/	-2
CCOc1cc(C2C(C(=O)OC(C)C)=C(C)NC3=C2C(=O)CC(C)(C)C3)cc(Br)c1O (configuration not stated)	104	/	/	-14
O=C1NC(=O)C2(CCC(C(=O)O)C2)N1 (configuration not stated)	107	104	83	/
CCc1noc(Cn2cnc3c([nH]c4ccc(C)cc43)c2=O)n1	106	/	/	6
[O-]/[N+](Cc1ccccc1)=N\OCc1ccccc1	103	101	62	-18
O=C(NC(=S)N1CCCCC1CO)C12CC3CC(CC(C3)C1)C2 (configuration not stated)	/	105	86	-8
CCCN(CCC)S(=O)(=O)c1ccc(C(=O)OCC(=O)c2ccccc2)cc1	102	111	88	-26
CCOC(=O)C1=C(C)N=c2s/c(=C\c3ccc4c(c3)OCCO4)c(=O)n2C1c1ccc(OC)c(OCC)c1 (configuration not stated)	103	/	/	10
Cc1ccc(COc2cc(C)c3c(C)nn(C)c3n2)cc1	101	/	/	-4
CCOC(=O)c1cccc(NC(=O)c2oc3c(c2C)-c2nn(CC)cc2CC3)c1	97	88	62	-6
Cc1cc(NC(=O)CC(C)(C)C)n(-c2ncnc3c2cnn3-c2cccc(Cl)c2)n1	101	/	/	-10
CC1(O)CC(C(F)(F)OC(F)(F)F)=NN1S(=O)(=O)c1ccccc1 (configuration not stated)	98	89	73	/
CSc1nc(-c2cc(Cl)cc(Cl)c2)nn1C(=O)N(C)C	106	100	80	2
Cc1ccc(-c2cc(C(=O)N3CCCC3)no2)cc1	97	104	73	5
COc1ccc(-c2cn3nc(SCC(=O)Nc4ccc(C)c(Cl)c4)ccc3n2)cc1	105	82	87	/
CC(=O)c1cc2c(cc1N/C(=N/S(=O)(=O)c1ccc(C)cc1)c1ccc(F)cc1)OCO2	96	100	97	/
c1cncc(-c2nnc(SCC3CCCCC3)o2)c1	101	96	101	0
N#CCc1ccc(Oc2ncnc3c2oc2ccccc23)cc1	/	79	87	-19
CC1CC(C)CN(Cn2ncn(C)c2=S)C1 (configuration not stated)	/	87	99	-27
CCC(Sc1nc2ccncc2[nH]1)C(=O)Nc1cc(C)ccc1C (configuration not stated)	101	106	88	1
CCc1ccc(C2C3=C(CC(c4ccc(O)c(OC)c4)CC3=O)Nc3onc(C)c32)cc1 (configuration not stated)	110	/	/	-1
Cc1nn(S(=O)(=O)c2ccccc2)c(C)c1S(=O)(=O)N1CCC(C)CC1	104&99	96	91	-26

Part of the list above in order of SMILES length, falling.
SMILES	GIV-Gai inh	Sa growth 42C	Sa growth 42C second temp	HCMV UL50-53 inh
CCOC(=O)C1=C(C)N=c2s/c(=C\c3ccc4c(c3)OCCO4)c(=O)n2C1c1ccc(OC)c(OCC)c1 (configuration not stated)	103	/	/	10
CCc1ccc(C2C3=C(CC(c4ccc(O)c(OC)c4)CC3=O)Nc3onc(C)c32)cc1 (configuration not stated)	110	/	/	-1
Cc1cc(NC(=O)CC(C)(C)C)n(-c2ncnc3c2cnn3-c2cccc(Cl)c2)n1	101	/	/	-10
COc1ccc(-c2cn3nc(SCC(=O)Nc4ccc(C)c(Cl)c4)ccc3n2)cc1	105	82	87	/
Cc1nn(S(=O)(=O)c2ccccc2)c(C)c1S(=O)(=O)N1CCC(C)CC1	104&99	96	91	-26
CCCN(CCC)S(=O)(=O)c1ccc(C(=O)OCC(=O)c2ccccc2)cc1	102	111	88	-26
CC1(O)CC(C(F)(F)OC(F)(F)F)=NN1S(=O)(=O)c1ccccc1 (configuration not stated)	98	89	73	/
CCC(Sc1nc2ccncc2[nH]1)C(=O)Nc1cc(C)ccc1C (configuration not stated)	101	106	88	1
CSc1nc(-c2cc(Cl)cc(Cl)c2)nn1C(=O)N(C)C	106	100	80	2
N#CCc1ccc(Oc2ncnc3c2oc2ccccc23)cc1	/	79	87	-19
Cc1ccc(-c2cc(C(=O)N3CCCC3)no2)cc1	97	104	73	5
c1cncc(-c2nnc(SCC3CCCCC3)o2)c1	101	96	101	0
CC1CC(C)CN(Cn2ncn(C)c2=S)C1 (configuration not stated)	/	87	99	-27

The results go on.
SMILES	GIV-Gai inh	Sa growth 42C	Sa growth 42C second temp	HCMV UL50-53 inh
COc1cc(OC)c(/C=C2\C(=O)NC(=O)N(c3ccccc3C)C2=O)c(OC)c1	109	/	/	-27
CCOC(=O)c1ccc(/N=C/N(C)C)o1	/	105	93	-15
COc1cc(CC(C#N)(CO)c2nc3ccccc3[nH]2)ccc1OC(F)F (configuration not stated)	/	107	94	-31
O=C(c1cc2ccc3cccnc3c2[nH]1)N1CCCCC1	103	111	89	/
O=C(Cn1c(=O)oc2cc(S(=O)(=O)N3CCCCC3)ccc21)NCc1ccc(F)cc1	105	101	98	-5
O=C1CCC(C(=O)O)CC1	106	91	79	14
COc1cccc(-c2cc(C(=O)Nc3ccc(S(=O)(=O)Nc4nccc(C)n4)cc3)c3ccccc3n2)c1	103	/	/	-19
Cc1ccc(C)c2c1c1ccccc1n2C	109	111	100	-9
COC(=O)CN1CCN(c2nc3c(c(=O)[nH]c(=O)n3C)n2Cc2ccc(Cl)c(Cl)c2)CC1	100	106	96	2
CCN1CCN(C(=O)c2cc3c(=O)n(C)c4ccccc4c3n2C)CC1	102	97	88	-20
O=C(CCCc1nnc2c(=O)n(-c3ccc(F)c(F)c3)ccn12)N1CCN(c2ccccn2)CC1	104	/	/	-25
COc1ccc(-c2cc(C(=O)NCCc3ccccc3)c3cc(C(C)C)ccc3n2)cc1	98	116	91	/
COc1ccc(/C=C(\C#N)C(=O)OCc2nc(-c3ccc(C)cc3)no2)cc1	/	100	91	5
O=C(COc1cccc(Cl)c1)Nc1ccc(OC(F)(F)F)cc1	/	94	81	-16
Cc1cc(C)cc(NC(=O)CN2C(=O)CSc3ccc(S(=O)(=O)N4CCCC4)cc32)c1	108	132	74	/
CN(C)S(=O)(=O)N(C)c1ccccc1	/	80	90	2
CCN(Cc1ccccc1)C(=O)Cn1c(=O)cc(C)c2c(C)nn(-c3cccc(F)c3)c21	100	86	79	/
CCc1ccccc1NC(=O)Cn1nnc(C(=O)O)c1C(=O)O	100&101	84	88	-26&16
Cc1ccc(S(=O)(=O)N2CCCC(C(=O)N3CCCCC3)C2)cc1 (configuration not stated)	/	91	98	-6
Cc1ccc2onc(CNC(=O)N3CCC(C(N)=O)CC3)c2c1	98	96	86	-25
Cc1nn(-c2ccc(F)cc2)c2ncc(C(=O)N3CCN(C(=O)c4ccco4)CC3)c(Cl)c12	97	87	80	-30
C=CCNC(=O)C1CC=CCC1C(=O)Nc1ccccc1C (configuration not stated)	99	102	104	2
CC1=C(C(=O)Nc2cc(C)ccn2)C(c2cc([N+](=O)[O-])ccc2Cl)C2=C(CC(C)(C)CC2=O)N1 (configuration not stated)	103	/	/	-18
CCc1nc2c(c(=O)c3ccccc3n2C)c(=O)n1Cc1ccco1	117	98	91	-5
CC(C)(C)OC(=O)N/N=C/c1cccc(O)c1	107	116	76	-24
CN(C)S(=O)(=O)c1ccc(C(=O)Oc2cc(=O)[nH]c3ccccc23)cc1	/	99	94	-4
CCC(C)(C)C1CCC(N)CC1 (configuration not stated)	/	101	93	-25
COc1cccc(N2CCN(C(=O)c3cc(C)nc4c(-c5ccccc5)cccc34)CC2)c1	109	/	/	4
COc1cc(C=Nc2ccccc2)cc(OC)c1O	97	99	113	-19
Cc1ccc(C)c(NC(=O)CN(C)C(=O)c2ccccn2)c1	/	74	92	-27
CCOc1ccc(/C=C/C(=O)Nc2nc(-c3ccc(C)cc3)c(C)s2)cc1	105	100	86	/
CCc1ccc(-n2c(=O)c3cccnc3n2CC(=O)Nc2ccc3c(c2)OCO3)cc1	108	/	/	18
CCOC(=O)c1c(C)c(S(=O)(=O)NC(C)(C)C)c(C)n1C	104	/	/	13
CC(=O)NCCc1csc(-c2ccc(Cl)cc2)n1	105	/	/	-42
Cc1cccc(-c2nccc(N3CCC(C(=O)NC(C)CCc4ccccc4)CC3)n2)c1 (configuration not stated)	103	/	/	-23
O=S(=O)(CS(=O)(=O)c1ccccc1)c1ccccc1	103	116	86	-10
O=S1(=O)C=CC(N2CCCCC2)C1 (configuration not stated)	/	97	103	14
CC1CCN(CCCNC(=O)c2nn(C)c3c2CCc2sccc2-3)CC1	111	/	/	13
CCN(CC)C(NC(=O)c1ccccc1)C(=O)c1ccccc1 (configuration not stated)	100	96	90	-14
CCOc1c(Cl)cc(Cl)cc1CNCCSc1nnnn1C	110	93	100	8
CC(C)Oc1ccc(CNC(=O)C2=Cc3ccccc3OC2)cc1	106	113	92	/
CCOc1cc(S(=O)(=O)NCCc2c(C)[nH]c3ccc(C)cc23)ccc1F	102	101	102	/
CCCCN1CC(O)=C(c2ccccc2)C1=N	107	99	98	-30
CCS(=O)(=O)c1ccc2oc(SCC(=O)NCCc3ccccc3)nc2c1	/	98	90	-10
CCCN(C(=O)c1noc2c1COc1ccc(C)cc1-2)c1ccc(Cl)c(Cl)c1	109	86	107	/
Nc1nnc(CCC2CCCCC2)s1	101	84	82	-12
O=C(O)C(Cc1cnc[nH]1)N1C(=O)C2C3C=CC(C3)C2C1=O (configuration not stated)	/	94	88	-4
O=C(Nc1ccccc1Br)N1CCN2CCCCC2C1 (configuration not stated)	100	92	87	/
Cc1cc(C)c(NC(=O)Nc2ccc3snnc3c2)c(C)c1	103	96	88	-18
N#Cc1cccnc1NNC(=O)Nc1cccc2ccccc12	101	97	99	-18
COc1ccc2cc3cc(C(=O)NCCCN4CCCCCC4)oc3nc2c1	105	108	70	/
CCCC(=O)NC(=S)Nc1cc(-c2nc3cc(CC)ccc3o2)ccc1C	102	110	101	-13
Nc1nc2c(-c3ccccc3)c(C(F)(F)F)sc2s1	100	77	87	-24
CC(OC(=O)c1ccc(CN2CCCC2=O)cc1)C(=O)c1ccc(F)cc1 (configuration not stated)	/	91	96	-8
CCOC(=O)c1[nH]c(CSc2nnc(-c3ccc(OC)cc3)o2)c(C(=O)OCC)c1C	/	88	99	15
CN(c1nc(N)c2c(N)nc3c(c2c1C#N)CC(=O)N3Cc1cccs1)C1CCS(=O)(=O)C1 (configuration not stated)	/	104	76	-67
COC(=O)c1sc(-c2ccc(C(C)(C)C)cc2)cc1NC(=O)CCC(=O)O	109	95	102	-25
CCOC(=O)c1[nH]c(C)c(CCC(=O)N2CCN(c3cc(C)ccc3C)CC2)c1C	105	91	97	/
Brc1ccc(OCc2nnc3sc(-c4cccnc4)nn23)cc1	105	/	/	-9
COC(=O)CNC(=O)NC12CC3CC(CC(C3)C1)C2	106	91	88	-16

The list goes on.
SMILES	GIV-Gai inh	Sa growth 42C	Sa growth 42C second temp	HCMV UL50-53 inh
CSc1cccc(NC(=O)N2CCN(c3cc(-c4noc(C)n4)ccc3C)CC2)c1	102	96	85	/
COC(=O)c1cc2c(cc1NC(=O)c1cnn(-c3ccc(C)cc3)c1-n1cccc1)OCO2	103	102	91	/
COC(=O)c1sc(-c2cccs2)cc1N1C(=O)C=CC1=O	105	134	72	-48
Cc1ncc(COC(=O)C(C)C)c2cc(C(=O)Nc3ccccc3C(F)(F)F)c(=O)oc12	108	122	104	/
CCOC(=O)N1CCN(C(=O)c2cc3c(ccc4ccccc43)oc2=O)CC1	102	87	85	/
Cc1cc(OCc2nc3c4ccccc4ncn3n2)ccc1Cl	102	/	/	-17
CCOC(=O)N1CCC(=NNC(=O)COc2ccc(C)cc2C(C)C)CC1	/	120	103	17
O=c1c(Cl)c(Cl)cnn1C1CCS(=O)(=O)C1 (configuration not stated)	/	74	92	-75
Cn1c(Cc2nn(C)c(=O)c3ccccc23)nnc1SCC(=O)c1ccc(Cl)cc1Cl	102	96	85	-30
COc1ccccc1C(CCNCc1cccs1)c1ccco1 (configuration not stated)	99	116	72	-2
CCOC(=O)c1c(C)[nH]c(C)c1S(=O)(=O)N1CCC(C(=O)N2CCN(c3ccccc3F)CC2)CC1	103&101	108	88	/
Cc1ccc2[nH]c(=O)c3cc(C(=O)NCCC(C)C)sc3c2c1	103	106	87	/
O=C(COc1ccc(F)cc1)NCCc1nc2ccccc2[nH]1	104	96	85	-9
Cc1ccc(CNC(=O)c2ccc(Cn3c(=O)[nH]c4ccccc4c3=O)cc2)o1	107	83	82	2
CN1CCN(CCCNC(=O)c2cnn(-c3ccccc3)c2-n2cccc2)CC1	101	100	90	-4
O=C(Cn1ccc2ccccc2c1=O)NC1CCCCC1	104	105	94	/
CSc1n[nH]c2nc3c(c(=O)n12)C1(CCCC1)Cc1ccccc1-3	102	116	99	0
Cc1ccc(S(=O)(=O)c2c(C)nn(-c3ccccc3)c2OC(=O)c2ccccc2F)cc1	101	98	92	-10
